Compound activity from PubChem BioAssay.
MARV entry inh = Marburg virus entry inhibition; Marburg virus pseudotyped entry inhibition, cell reporter; control for the full effect not named in the record; about a third of the inactives were read at about 46 µM; Potency, µM (titrated, usually from 37.8 µM), inactives show at the top dose activity change, negative = inhibition, usual class: inhibitors; hit rate 1.8% among 300,000; active = well fitted inhibition curve with a large enough effect; inconclusive = small, poorly fitted or top-dose-only effect, or effect the other way; inactive = flat fitted curve, though single readings scatter; tested in HEK293 cells; about a fifth of its hits are not listed in these tables; note: % is set by controls: 0 for no effect and ±100 for the full control effect; luciferase read-out
LASV entry inh = blocks Lassa virus binding to or entry into cells | hit rate 1.2% among 300,000 | Lassa virus pseudotype entry inhibition, cell reporter; control for the full effect not named in the record | Potency, µM (highest dose often 37.9 µM), inactives show at the highest dose activity change, negative = inhibition, actives largely listed as inhibitors; active means well fitted inhibition curve with a large enough effect; inconclusive means small, poorly fitted or top-dose-only effect, or effect the other way; inactive means flat fitted curve, though single readings scatter; tested in HEK293 cells; note: % is set by controls: 0 for no effect and ±100 for the full control effect; nearly all actives have a fitted effect of over 50% in size; luciferase read-out
RE007 growth inh = less growth of the S. pombe RE007 Vpr strain. AID 651644. hit rate 0.21% among 360,000. S. pombe RE007 Vpr strain, BacTiter-Glo ATP luminescence, 24 h; control for the full effect not named in the record. Potency, µM (top dose mostly 92.2 µM), without a hit: at the top dose activity change, negative = less growth; active = well fitted falling curve with a large enough effect; inconclusive = small, poorly fitted or top-dose-only effect; inactive = no such curve, though single readings can be large or run the other way;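 note: % is set by controls: 0 for no effect and ±100 for the full control effect; nearly all actives have a fitted effect of over 50% in size; the assay follows cell death caused by Vpr and the record does not say whether a fall means rescue or toxicity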
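Fission yeast RE007 carrying one integrated HIV-1 vpr copy, seeded at OD 0.01 in PMG+AL medium with 23 nL pinned compound. Grown 24 h at 30 degrees; viability read by BacTiter-Glo luminescence after 5 min.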
SARS PLP yeast = blocks SARS-CoV papain-like protease in a yeast assay | Potency, µM (top dose mostly 32.9 µM), for inactives: at the top dose activity, positive = growth rescue | S. cerevisiae expressing SARS-CoV PLpro, growth rescue; control for the full effect not named in the record | AID 485353 | hit rate 0.19% among 330,000; note: 0% is about no effect; nearly all actives have a fitted effect of over 55% in size; growth read by luminescence after 48 h
Cruzain noTriton = inhibitors of Trypanosoma cruzi cruzain without detergent; P25779; purified cruzain, Z-FR-AMC fluorescence, no detergent; Potency, µM, inactives show max response, negative = inhibition, most hits filed as inhibitors; hit rate 2.3% among 200,000; AID 1476; active = well fitted curve in the direction sought with a large enough effect; inconclusive = small, poorly fitted or top-dose-only effect, or another doubt; inactive = no such curve, though single readings can be large; an effect the other way counts as inactive or inconclusive;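 note: plate controls were enzyme without inhibitor for no effect and buffer without enzyme for full effect; nearly all actives have a fitted effect of over 40% in size; top concentration of the series not given in the record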
Target sequence (P25779 123-467 limits assumed): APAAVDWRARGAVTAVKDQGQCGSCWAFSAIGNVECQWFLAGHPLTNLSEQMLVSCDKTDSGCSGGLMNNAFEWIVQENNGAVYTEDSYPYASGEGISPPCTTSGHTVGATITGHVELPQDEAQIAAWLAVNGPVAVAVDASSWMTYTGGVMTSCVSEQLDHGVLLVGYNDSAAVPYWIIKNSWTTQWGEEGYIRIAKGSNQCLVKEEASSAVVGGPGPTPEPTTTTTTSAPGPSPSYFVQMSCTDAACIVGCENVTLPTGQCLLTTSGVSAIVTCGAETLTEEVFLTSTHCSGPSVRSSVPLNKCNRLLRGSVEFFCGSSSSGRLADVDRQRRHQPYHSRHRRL
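Purified cruzain at 1.5 nM, pre-incubated 15 min with compound at room temperature in 100 mM sodium acetate pH 5.5, 5 mM DTT, 0.00005% Triton X-100. Reaction started with 2 uM Z-FR-AMC; AMC fluorescence increase over 60 s gives rate.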
2A StopGo = lowers the luciferase signal of an FMDV 2A StopGo reporter; human cells with a luciferase reporter of 2A StopGo recoding; control for the full effect not named in the record; Potency, µM (doses to about 57.9 µM), inactives show top-dose signal change, negative = less light; hit rate 1.2% among 410,000; AID 1159524; active = well fitted falling curve with a large enough effect; inconclusive = small, poorly fitted or top-dose-only effect; inactive = no such curve, though single readings can be large or run the other way; tested in HEK293T cells; note: % is set by controls: 0 for no effect and ±100 for the full control effect; nearly all actives have a fitted effect of over 45% in size; luciferase light after 4 h
NS1 inh = influenza NS1 inhibition; S. cerevisiae slowed by influenza A NS1, growth recovery by OD600; Potency, µM (doses to about 46.1 µM), for the others: at the highest dose activity, positive = more growth; hit rate 0.4% among 270,000; AID 2326; note: actives are rising curves; nearly all actives have a fitted effect of over 50% in size
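In this qHTS, NS1 from influenza A is expressed in budding yeast, where it slows growth. Cells are switched from glucose to 2% galactose medium (pH 6.0, -URA), treated with compound, and growth recovery is read at OD600.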
Cruzain inh Det = cruzain (T. cruzi) inhibition with detergent | P25779 | hit rate 0.43% among 200,000 | Potency, µM, for inactives: max response, negative = inhibition, hits mostly inhibitors | purified cruzain, Z-FR-AMC fluorescence, 0.01% Triton; active = well fitted curve in the direction sought with a large enough effect; inconclusive = small, poorly fitted or top-dose-only effect, or another doubt; inactive = no such curve, though single readings can be large; an effect the other way counts as inactive or inconclusive;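 note: plate controls were neutral wells for no effect and buffer without enzyme for full effect; nearly all actives have a fitted effect of over 40% in size; top concentration of the series not given in the record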
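15 min RT preincubation of 1.5 nM cruzain with compound, then 2 uM Z-FR-AMC added; kinetic AMC fluorescence, 60 s delta. Triton X-100 0.01%, pH 5.5.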
* marks the source's active call; other numbers are inactive results; u = inconclusive; x = no result given; & = joins results of further samples; [ ] = another dose, or the depositor's remark. Unless noted, calls come from the whole dose curve; as a rule, active means well fitted rising curve with a large enough effect; inconclusive means small, poorly fitted or top-dose-only effect; inactive means no such curve, though single readings can be large or run the other way. Potency is the fitted concentration of half-maximal effect.

The line under a structure holds: MARV entry inh, LASV entry inh, RE007 growth inh, SARS PLP yeast, Cruzain noTriton, 2A StopGo, NS1 inh, Cruzain inh Det
- Cc1cc(C)cc(N(C(=O)CCC(=O)Nc2cc(C)on2)C(C(=O)NC2CCCC2)c2ccco2)c1 (stereo not given)
  11µM*, u, 2%, -1%, x, -23%, 2%, x
- COc1cc(/C=N/NC(=O)c2cc[n+]([O-])cc2)cc(OC)c1OC
  -5%, -12%, -21%, 3%, x, 12%, 22%, x
- CSc1ccccc1NC(=O)Cn1nc([N+](=O)[O-])c(Cl)c1C
  0%[46.1 µM], 0%, -5%, 1%, x, -15%, -5%, x
- CCN1C(=O)c2n[nH]c(C(=O)OC)c2C1=O
  -2%[46.1 µM], 13%, 3%, 10%, 0%, -11%, 24%, 1.2%
- O=C(CSc1nc2sc3c(c2c(=O)[nH]1)CCC3)NCCO
  2%, 8%, 8%, 1%, x, -11%, 1%, x
- CCc1ccc(C2C(C#N)=C(N)N(N(C)C)C3=C2C(=O)CCC3)cc1 (stereo not given)
  6%, x, 7%, 0%, x, -7%, -1%, x
- COC(=O)c1[nH]c2ccccc2c1CN1CCOCC1
  x, x, 4%, 5%, x, -13%, 1%, x
- Cc1c(/C=N\NC(=O)c2c[nH]c3ccccc23)cnn1C
  u, 2%[46.1 µM], 6%, -1%, x, 15%, x, x
- NC(=O)Cn1c(=O)n(CCCCCC(=O)NCc2ccc3c(c2)OCO3)c(=O)c2sccc21
  0%[46.1 µM], -19%[46.1 µM], x, x, -2%, 5%, x, -2.3%
- CCN(CC)CCOCCOc1ccc(Cl)c2ccccc12
  x, x, -19%, -3%, x, -17%, -3%, x
- Cc1ccc(Sc2nc([N+](=O)[O-])nn2C)cc1
  u, 13%, x, 12%, 0%, -12%, -8%, -0.1%
- CCOc1cc(/C=C2\C(=O)N(CCC#N)N=C2C)ccc1OCC(N)=O
  7%, 3%, -13%, 2%, x, 14%, x, x
- O=C1CCCC(=O)C1=C1SCCS1
  1%, -5%, -10%, 4%, -6%, 10%, 2%, -7.4%
- COCCn1c(N)c(N(Cc2ccccc2)C(=O)c2ccc3ccccc3c2)c(=O)[nH]c1=O
  24%, u, -9%, -4%, x, -8%, x, x
- COc1ccccc1NC(=O)C(C)OC(=O)c1ccc(-n2cnnn2)cc1 (stereo not given)
  -12%[46.1 µM], -13%, 4%, -7%, x, 9%, x, x
- O=C(Nc1ccc(-c2csc(Nc3ccccc3)n2)cc1)c1ccccc1
  x, x, -2%, -1%, x, -21%, 4%, x
- O=C(C[n+]1cc(Br)cc2ccccc21)c1ccc(Cl)cc1
  16%, u, -12%, 1%, x, u, -6%, x
- O=C(c1ccccc1F)N1CCN(C(=O)C(c2ccccc2)c2ccccc2)CC1
  -1%[46.1 µM], -10%, 0%, 5%, x, u, 1%, x
- COc1ccc(-c2cc(C(=O)N3CCN(c4ccccc4)CC3)no2)cc1OC
  1%, -14%, -18%, 5%, u, -17%, -4%, -2.1%
- CCOCCN(C(=O)c1ccccc1Cl)c1cccc(C)c1C
  -24%[14.2 µM], 11%, -19%, -1%, x, -16%, -4%, x
- O=C(Cn1c2ccc(F)cc2c2nc3n(c(=O)c21)CCS3)Nc1ccc(Cl)cc1F
  u, -12%, -7%, 0%, x, u, x, x
- CCc1cc2c(=O)c(-c3nc4ccccc4n3C)coc2c(CN2CCCCC2C)c1O (stereo not given)
  x, x, -10%, -1%, x, -28%, 1%, x
- CCc1nc2ccccc2n1CCc1ccccc1
  13%[46.1 µM], 4%, 2%, 16%, x, -22%, x, x
- COc1cc(NC(=O)Cc2ccc([N+](=O)[O-])cc2)c(C(=O)O)cc1OC
  4%, 6%, -7%, -7%, -18%, -5%, -4%, -1.6%
- CCOC(=O)c1c(CN2CCCCC2C)oc2ccc(OC)cc12 (stereo not given)
  u, -12%, 0%, 2%, -5%, 0%, 1%, -1.8%
- CCOc1ccccc1NC(=O)COC(=O)c1ccc(S(=O)(=O)N2CCCC2)cc1
  u, 14%, 6%, 1%, x, -14%, x, x
- Cc1cccc(NCC(=O)N/N=C\c2ccccn2)c1
  16%[46.1 µM], 26%, -19%, 0%, x, 1%, -3%, x
- Cc1cc(C)cc(-n2c(=O)c3ccccc3n(CC(=O)NCC3CCCO3)c2=O)c1 (stereo not given)
  -10%[46.1 µM], 10%, 2%, -1%, x, 19%, 7%, x
- COc1cccc(NCCC(=O)c2cccc([N+](=O)[O-])c2)c1
  9%, 4%, -25%, -5%, x, 38%[activator], 4%, x
- Cc1ncc(CNC(=O)N(CCCl)N=O)c(N)n1
  u, 0%, 29%, x, 7%&5%, -17%&9%, -12%, -1.9%&3.6%

Looked up above.
O=C(C[n+]1cc(Br)cc2ccccc21)c1ccc(Cl)cc1 – SARS PLP yeast = 1%
CCN(CC)CCOCCOc1ccc(Cl)c2ccccc12 – NS1 inh = -3%

(list continues)
The line under a structure holds: MARV entry inh, LASV entry inh, RE007 growth inh, SARS PLP yeast, Cruzain noTriton, 2A StopGo, NS1 inh, Cruzain inh Det
- Cc1ccc(N(CCC#N)C(=O)CN2C(=O)NC(Cc3ccccc3)C2=O)cc1 (stereo not given)
  u, u, -10%, 0%, x, 4%, x, x
- CCc1c(C)sc(NC(=O)OC)c1C(=O)N1CCCCC1
  -2%, 0%, 0%, 1%, 0%, 1%, -13%, -1.5%
- CC(C)CNC(=O)c1ccccc1SCC(=O)NC12CC3CC(CC(C3)C1)C2
  -13%, u, 17%, -42%, -8%, -22%, -34%, -0.6%
- Cc1ccc(NC(=S)NC(=O)C2CC2)cc1Cl
  x, x, -21%, u, x, 32%[activator], -22%, x
- Cc1ccc(C(=O)NNC(=S)NC(=O)c2ccc(Cl)cc2)cc1
  -12%, u, u, -14%, u, 4%, -69%, 5.2%
- CCCCS(=O)(=O)N1CCC(C(=O)NCC2CCCO2)CC1 (stereo not given)
  16%[46.1 µM], u, 7%, 4%, x, -3%, 7%, x
- N#C/C(=C\c1ccc(N2CCOCC2)o1)C(=O)NC1CCCCC1
  u, -20%[46.1 µM], 0%, 0%, x, 10%, 3%, x
- C=CCn1c(=O)c2c3c(sc2n2c(Nc4ccc(OC)cc4)nnc12)CCCC3
  u, u, 26%, -14%, 18%, u, -10%, 0.5%
- Fc1ccc(NC(=S)Nc2cccc3ccccc23)cc1F
  x, x, -2%, -6%, x, 6%, 21%, x
- Cc1ccnc(N2C(=O)OC(C)(C)C2(C)O)c1 (stereo not given)
  13%, 2%, -16%, -2%, -5%, 20%, 5%, 3.7%
- O=C(CCSCc1cccc(F)c1)NCc1ccc(F)cc1
  x, x, -8%, -1%, x, -1%, -43%, x
- CC(=O)N1c2ccc(S(=O)(=O)NCCC(=O)Nc3ccc(Br)c(C)c3)cc2CC1C (stereo not given)
  x, -11%[46.1 µM], x, x, -12%, u, x, -3.7%
- O=[N+]([O-])c1ccccc1/C=N/n1c(COc2ccccc2)n[nH]c1=S
  u, 4%, 14%, -6%, -10%, -7%, -2%, -3.8%
- CCOCC(=O)Nc1ccc(-c2cn3cccnc3n2)cc1
  u, 25%, 1%, -1%, u, 14%, -1%, -27%
- Cc1ccc(-c2nc3sc(CCNC(=O)c4ccc(F)c(F)c4)c(C)n3n2)cc1
  x, -29%[46.1 µM], x, x, -8%, -14%, x, -8.4%
- O=C(CCn1c(=O)sc2ccccc21)NCc1ccco1
  10%, 0%, 6%, -21%, -23%, x, -2%, 0.2%
- Cc1c(C(=O)NCCc2ccccc2)cccc1-n1cnc2cccnc21
  x, 29%[46.1 µM], x, x, -7%, 24%, x, -0.1%
- CCOc1ccc(/C=N/NS(=O)(=O)c2ccc(C)cc2)cc1OC
  x, x, 1%, 1%, x, 0%, 10%, x
- Cc1ccc(S(=O)(=O)N(C)C)cc1NC(=O)C1CCCCC1
  5%[46.1 µM], 15%[46.1 µM], -25%, 0%, x, 7%, 4%, x
- CCOC(=O)C1CCCN(CC(=O)N2CCCc3c2c(=O)oc2ccc(OCc4ccccc4)cc32)C1 (stereo not given)
  0%[46.1 µM], 15%[46.1 µM], x, x, 6%, -19%, x, -8.8%
- COc1ccccc1C1NC(=O)NC(C)=C1C(=O)OC1CCCCC1 (stereo not given)
  x, x, 6%, 8%, -7%, -26%, 4%, 7.3%
- CS(=O)(=O)N(CCc1ccccc1)CC(N)=O
  -5%, 1%, -12%, -4%, -13%, 1%, -3%, 2.9%
- CC(=O)Nc1ccc(C(=O)OC2CCOC2=O)cc1 (stereo not given)
  1%, 2%, 19%, -2%, -1%, -7%, -2%, -2.1%
- COc1ccc(CN2C(=O)CN=C2Nc2cc(C)ccc2C)cc1
  u, -33%, 3%, -3%, 3%, 6%, -13%, -1.4%
- CCS(=O)(=O)N1CCN(c2ccc([N+](=O)[O-])c(NCc3cccnc3)c2)CC1
  -14%[46.1 µM], 4%[46.1 µM], -5%, -1%, x, 4%, 1%, x
- CCCCOC(=O)Cn1c(=O)c2c(nc3n2CCCCN3c2ccc(C)cc2)n(C)c1=O
  u, -17%, 3%, 4%, 17%, u, -76%, 25µM*

Quoted at random: 4 entries already listed, in no set order.
The line under a structure holds: MARV entry inh, LASV entry inh, RE007 growth inh, SARS PLP yeast, Cruzain noTriton, 2A StopGo, NS1 inh, Cruzain inh Det
- Cc1ccnc(N2C(=O)OC(C)(C)C2(C)O)c1 (stereo not given)
  13%, 2%, -16%, -2%, -5%, 20%, 5%, 3.7%
- CC(=O)Nc1ccc(C(=O)OC2CCOC2=O)cc1 (stereo not given)
  1%, 2%, 19%, -2%, -1%, -7%, -2%, -2.1%
- Cc1ccc(NC(=S)NC(=O)C2CC2)cc1Cl
  x, x, -21%, u, x, 32%[activator], -22%, x
- O=C(CSc1nc2sc3c(c2c(=O)[nH]1)CCC3)NCCO
  2%, 8%, 8%, 1%, x, -11%, 1%, x
